Vaccinia Venus: inhibitors of vaccinia virus (Venus reporter); Vaccinia virus Venus reporter expression, fluorescence; Potency, µM (titrated, usually from 36.5 µM), without a hit: top-dose activity change, negative = inhibition, most hits filed as inhibitors; actives 0.46% (n = 330,000); active means well fitted inhibition curve with a large enough effect; inconclusive means small, poorly fitted or top-dose-only effect; inactive means no such curve, though single readings can be large or run the other way; tested in A549 cells; note: nearly all actives have a fitted effect of over 30% in size; inactives centre near -10
VACV mCherry inh: vaccinia inhibition (mCherry reporter); Vaccinia virus mCherry reporter infection, fluorescence; about a quarter of the inactives have no number; Potency, µM (doses to about 36.5 µM), without a hit: at the highest dose activity change, negative = inhibition, most hits filed as inhibitors; actives 0.63% (n = 310,000); AID 720579; active = well fitted inhibition curve with a large enough effect; inconclusive = small, poorly fitted or top-dose-only effect; inactive = no such curve, though single readings can be large or run the other way; tested in A549 cells; note: nearly all actives have a fitted effect of over 35% in size; inactives centre near -10
An asterisk follows results filed as active; i = inactive; ? = inconclusive; . = not tested or not shown; & = joins results of further samples; [ ] = another dose, or the depositor's remark. % is set by controls: 0 for no effect and ±100 for the full control effect; potency is the fitted concentration of half-maximal effect.

SMILES	Vaccinia Venus	VACV mCherry inh
COc1cccc(-c2nc(CS(=O)(=O)CC(=O)NCc3ccccc3OC)c(C)o2)c1	-14%	?
COc1ccc(/C=C2\Oc3cc(OCC(=O)N4CCC[C@H]4C(=O)O)ccc3C2=O)c(OC)c1	2%	2%
O=C(O)/C=C\C(=O)Nc1ccc(N2CCN(c3ccc(F)cc3)CC2)cc1	8%	?
CN(c1ccccc1)S(=O)(=O)c1ccc(Cl)c(C(=O)OCC(=O)c2c(N)n(C)c(=O)n(C)c2=O)c1	-26%	-10%
O=C(CSc1ccc2nnc(-c3ccc(Cl)cc3)n2n1)N1CCCc2ccccc21	-7%	-14%
[O-][n+]1onc2c3cc(-c4ccccc4)nnc3ccc21	0%	?
COc1cc(/C=C/C(=O)OCC(=O)Nc2ccc(NC(C)=O)cc2)cc(S(=O)(=O)N2CCc3ccccc32)c1OC	-16%	-1%
CC(=O)c1cccc(-c2ccc(CN3C(CC(C)C)C(=O)N(Cc4cn(CC5CCCCC5)nn4)CCS3(=O)=O)cc2)c1 (centres undefined)	?	-4%
O=c1cccc2n1CC1CNCC2C1 (centres undefined)	-7%&0%	-3%
O=C(CSc1nc(O)cc(=O)n1-c1ccccc1)Nc1ccccn1	2%	i
CCn1cc2nc(SCC(=O)Nc3ccc(OC)cc3OC)n(Cc3ccc(Cl)cc3)c(=O)c2n1	-22%	-17%
Cc1ccc(NC(=O)Cc2n[nH]c(=O)c3ccccc23)cc1S(=O)(=O)N1CCCCCC1	-29%	-21%
CCOC(=O)C1C(=O)CC(C)(O)C(C(=O)OCC)C1c1ccccc1 (centres undefined)	-10%	-16%
COc1ccc(S(=O)(=O)NCCCN2CCOCC2)c2ccccc12	-8%	-25%
COc1c2c(cc3c1OCO3)C13C=CC(OC)CC1N(C2)CC3O (centres undefined)	-17%	-13%
COc1nc(/C(N)=N/O)nc(N2CCCCC2)n1	-11%	-21%
Cc1ccc(-c2nc3nc4ccccc4nc3n2Cc2ccco2)cc1	-11%	?
COc1cc(C(CCN2CCOCC2)c2c(OC)cc(OC)c3c2OC(=O)CC3c2ccc(N(C)C)cc2)cc(OC)c1OC (centres undefined)	-12%	i
COc1ccc(CCNC(=O)c2ccc3ccccc3n2)cc1	1%	-14%
COCCNC(=O)Cn1cc2c(n1)-c1c(oc(C(=O)N3CCCC3)c1C)CC2	-5%	-3%
CSc1nc2ccccc2n1CC(=O)Nc1c(C)cccc1C	?	-17%
CN(Cc1ccc(F)cc1)C(=O)CNC(=O)c1ccc2c(c1)OCO2	-11%	-17%
COc1ccccc1-c1cncnc1Nc1ccc(F)cc1	-9%	-2%
CC(C)CNc1nc(SCC(=O)Nc2ccccc2)nc(N2CCOCC2)n1	-20%	-8%
CCCC(=O)N(Cc1cc(=O)[nH]c2ccccc12)c1ccc(OC)cc1	-13%	?
Cc1c(C(=O)NCC(C)(C)N2CCOCC2)cnn1-c1ncc2c(n1)-c1ccccc1CC2	-5%	0%
Nc1nnc(Cc2ccccc2F)s1	-8%	i
Cc1ccccc1COC(=O)c1nn(-c2ccccc2)nc1N	4%&1%	-9%
CCC1CCCCN1C(=O)CSc1nnc(-c2ccc(OC)c(OC)c2)o1 (centres undefined)	-9%	-15%
O=C(COc1ccc2ccccc2c1)NNC(=O)Cc1cccc2ccccc12	-11%	-16%
C/C=C/c1ccc2c(c1)OCO2	-7%&-8%&-16%	-9%&-19%&26%
O=C(c1ccco1)N1CCN(c2ccc([N+](=O)[O-])cc2F)CC1	-6%	-14%
CCC(C(=O)NC1CCCC1)N(Cc1ccc2c(c1)OCO2)C(=O)c1snc(C(N)=O)c1N (centres undefined)	-6%	-20%
NC(=O)c1ncn([C@@H]2O[C@H](CN=C3NS(=O)(=O)c4ccccc43)[C@@H](O)[C@H]2O)n1	-5%	i
COc1cc(OC)c(C(=O)NC2CCCCCC2)cc1OC	-27%	?
CC(C)Nc1ncnc2c1nnn2Cc1ccccc1	-20%	?
O=C(OCC(=O)N1CCN(c2ccccc2)CC1)c1ccc(O)cc1O	-5%	-12%
O=C(NC(=S)NNC(=O)c1ccccc1O)c1ccccc1	-16%	?
Cn1c(-c2c(N)n(-c3ccccc3)c3nc4ccccc4nc23)nc2ccccc21	-7%	i
Cc1cc(C(F)F)n2nc(C(=O)Nc3ccc(F)cc3F)nc2n1	-6%	.

3 structures already listed, arranged by length of the SMILES, descending.
SMILES	Vaccinia Venus	VACV mCherry inh
CN(c1ccccc1)S(=O)(=O)c1ccc(Cl)c(C(=O)OCC(=O)c2c(N)n(C)c(=O)n(C)c2=O)c1	-26%	-10%
CCC(C(=O)NC1CCCC1)N(Cc1ccc2c(c1)OCO2)C(=O)c1snc(C(N)=O)c1N (centres undefined)	-6%	-20%
COc1cccc(-c2nc(CS(=O)(=O)CC(=O)NCc3ccccc3OC)c(C)o2)c1	-14%	?

Further results
SMILES	Vaccinia Venus	VACV mCherry inh
N#Cc1cccc(-n2nnnc2-c2ccccn2)c1	-6%	-7%
Cn1c(=O)n(C)c2cc(N3CCOCC3)c(NC(=O)c3ccc(F)cc3)cc21	-13%	i
Cc1csc2nc(O)c(C(=O)NCCCN3CCCC3=O)c(=O)n12	-5%	i
Cc1c(NC(=O)CSc2ncnc3ccccc23)c(=O)n(-c2ccccc2)n1C	2%	i
Cc1ccc(S(=O)(=O)N2CCCCC2)cc1C(=O)N1C(C)CCCC1C (centres undefined)	-12%	-15%
COc1ccc(S(=O)(=O)N2CCC(C(=O)NCCc3ccc4c(c3)OCO4)CC2)cc1	-14%	-13%
COc1ccc(NCC(=O)NN=C2CCS(=O)(=O)c3ccc(F)cc32)cc1	-24%	-15%
CCc1c(C)sc(NC(=O)c2ccccc2[N+](=O)[O-])c1C(N)=O	-2%	-1%
COc1cccc(C(=O)Nc2ccc(NC(=O)C3C4C=CC(C4)C3C(=O)O)cc2)c1 (centres undefined)	-6%	i
Cn1nnc(C(O)CN2CCOCC2)n1 (centres undefined)	-12%	-13%[1.46 µM]
COc1ccc([N+](=O)[O-])cc1N(CC(O)CN1CCCCC1)S(=O)(=O)c1ccccc1 (centres undefined)	-15%	-16%
O=C(Nc1ccc2nc(SCC(=O)N3CCCc4ccccc43)sc2c1)c1ccc(Cl)cc1	-24%	-27%
COc1ccc(C(=O)c2[nH]c(N)c(C(=O)NCCc3c[nH]c4ccccc34)c2-c2ccc(OC)c(OC)c2)cc1	-3%	-21%
Brc1ccccc1-c1csnn1	-2%	-11%
O=C(NNC1=NCCC1)c1cccc(S(=O)(=O)N2CCCC2)c1	-18%	i
Cc1cc(C)c(NC(=O)CS(=O)CC(=O)NCCCc2ccccc2)c(C)c1 (centres undefined)	-27%	?
O=C1C=C(NCc2ccc(Cl)cc2Cl)C2(CCCCC2)O1	-5%	i
Cn1c(SCC(=O)N2CCc3ccccc3C2)nnc1-c1ccncc1	3%	-9%
Brc1cc2c(cc1C1Nc3ccccc3C3C=CCC31)OCO2 (centres undefined)	?	-13%
CN(C)CCNC(=O)Cn1nc(-c2ccc(Cl)cc2)ccc1=O	-12%	-7%
Cc1cccc2cc(CN(CCCN3CCOCC3)Cc3nnnn3C(C)(C)C)c(=O)[nH]c12	-17%	i
Cc1ccc(C)c(NC(=O)Nc2csc3c2CCCC3)c1	-10%	-9%
O=S(=O)(N/N=C\c1ccc2c(c1)OCO2)c1ccc(F)cc1	-3%	i
C#CCn1c(=NC(=O)c2ccccc2[N+](=O)[O-])sc2cc(S(C)(=O)=O)ccc21	-23%	-5%
O=C(N1CCC(O)(c2cccnc2)CC1)C12CC3CC(CC(C3)C1)C2	-14%	-3%
COc1cc(/C=C2\SC(=Nc3ccc(Cl)c(C(=O)O)c3)NC2=O)c(Br)c(Br)c1O	316%[activator]	i
Fc1ccc2nc3n(c2c1F)CCCCCC3	-19%	-19%
CCCn1c(=O)c2[nH]cnc2n(-c2ccccc2C)c1=O	-11%	-1%
Cc1cccc(NC(=O)C2CCCN(C(=O)NCc3ccccc3)C2)c1C (centres undefined)	-15%	-16%
CC(C)NC(=O)C(=O)NC1CCCCCC1	18%	.
COc1ccc(/C=C\c2nccc3c2[nH]c2ccccc23)cc1	-6%	-10%
COc1ccc(NC(=O)CSc2nnc(NC(=O)Nc3ccccc3)s2)cc1OC	-8%[7.34 µM]	-4%[7.34 µM]
CCOP1(=O)C=C(C(C)(C)C)OC1c1ccc(F)cc1 (centres undefined)	-11%	-11%[1.46 µM]
CC(C)NC(=O)C1(C)CN(S(C)(=O)=O)CC(=O)N1CCOc1ccccc1 (centres undefined)	5%	-14%
COc1ccccc1OCC(=O)Nc1nnc2n1CCS2	-7%[7.34 µM]	-12%[7.34 µM]
CCc1cccc(NC(=O)CN2C=NS(=O)(=O)c3ccccc32)c1	-6%	-12%
CCc1cccc(NC(=O)C2CCCN(c3ncnc4onc(-c5ccc(F)cc5)c34)C2)c1 (centres undefined)	-16%	-14%
Cc1ccc(NC(NC(=O)c2ccccn2)C(Cl)(Cl)Cl)cc1 (centres undefined)	-9%	-19%
NC(=O)C1(N2CCCCC2)CCN(Cc2ccccc2Cl)CC1	3%	i
CCCn1c(SCC(=O)NC2CCCC2)nc2c1c(=O)n(C)c(=O)n2C	-9%	-10%
COc1ccc(N2CCN(C(=O)c3cc(=O)c4cc(C)cc(C)c4o3)CC2)cc1	-18%	-4%
NC(=O)C1=C[C@@H](C2CCCCC2)C[C@@H](OCc2ccc(CO)cc2)O1	-14%	?
COc1cc(Cl)c(C)cc1NC(=O)COC(=O)C(NS(=O)(=O)c1ccc(Cl)cc1)C(C)O (centres undefined)	-7%	-7%
COc1cccc(Nc2nc3ccccc3nc2NS(=O)(=O)c2ccc(NC(C)=O)cc2)c1	-7%	-9%
CN(C)c1nc(SCC#N)nc(N2CCOCC2)n1	-20%	-13%
CN(CC(=O)Nc1ccccc1Oc1ccccc1)Cc1ccccc1F	-8%	i
CC(=O)C[C@H](O)CC(=O)[C@@H]1OC(=O)CCCCCc2ccccc21	-6%	i
CN(C)[C@@H]1C(=O)C(C(N)=O)=C(O)[C@@]2(O)C(=O)C3=C(O)c4c(O)cccc4[C@@](C)(O)C3C[C@@H]12 (some centres undefined)	-24%	-10%
O/N=C(/c1ccc(Cl)cc1)C1CC1c1ccccc1 (centres undefined)	-16%	-1%
O=C(O)CCn1c(=O)c2ccccc2c2ccccc2c1=O	-9%	-14%[1.46 µM]

The list continues:
SMILES	Vaccinia Venus	VACV mCherry inh
CC(C)(C)NC(=O)Cn1cc(C(=O)c2ccccc2F)c2ccccc21	-8%	i
CC(C)c1ccc(C2OC(CCc3ccccc3)Cc3[nH]c(=S)[nH]c(=O)c32)cc1 (centres undefined)	-7%	24%
CN1CCN(c2ccc(NC(=O)COc3ccccc3Cl)cc2)CC1	-15%	.
O=C(N1CCOCC1)N1CCN(S(=O)(=O)N2CCCCC2)CC1	?	.
Cc1ccc(S(=O)(=O)N2CCCC2C(=O)N2CCCCCC2)cc1 (centres undefined)	-11%	.
COc1ccc2c(c1)c(=O)c(S(=O)(=O)c1ccccc1)cn2CC(=O)Nc1ccc2c(c1)OCO2	0%	-4%
CSC(=NCCCN1CCOCC1)NS(=O)(=O)c1cccs1	-2%&7%	0%
CCCCn1c(N)c(NCC)c(=O)[nH]c1=O	-3%	-16%
O=C1C=CC(=O)N1c1ccccc1N1C(=O)C=CC1=O	?	-5%
Cc1ccc(CCNC(=O)C2CCN(S(=O)(=O)c3ccc4c(ccn4C)c3)CC2)cc1	-6%	-12%
COc1ccc(COC(=O)c2c(C)nn(-c3ccccc3)c2Cl)cc1	4%	-7%
CC(C)CC1NC(=O)N(CC(=O)N2CCN(S(=O)(=O)c3ccc(Cl)cc3)CC2)C1=O (centres undefined)	-10%	-22%
COc1ccc(C(=O)OCC(=O)NC(C)CCc2ccccc2)cc1 (centres undefined)	-10%	-1%
Cc1ccc(C(=O)N2CCCC(N(C)Cc3ccccc3)C2)s1 (centres undefined)	-17%	-21%
CC[C@@H](C)C(NC(=O)OC(C)(C)C)c1cn([C@@H](CCC(=O)OC(C)(C)C)C(=O)N2CCN(C(=O)OC(C)(C)C)CC2)nn1 (some centres undefined)	-23%	i
Nc1ccccc1SC1CC(=O)N(c2ccc(Cl)c(Cl)c2)C1=O (centres undefined)	?	-11%
O=C1C(=Cc2ccccn2)CCc2ccccc21	-17%	-6%

In the list so far, 14 have fluorine:
SMILES	Vaccinia Venus	VACV mCherry inh
O=C(O)/C=C\C(=O)Nc1ccc(N2CCN(c3ccc(F)cc3)CC2)cc1	8%	?
CN(Cc1ccc(F)cc1)C(=O)CNC(=O)c1ccc2c(c1)OCO2	-11%	-17%
COc1ccccc1-c1cncnc1Nc1ccc(F)cc1	-9%	-2%
Nc1nnc(Cc2ccccc2F)s1	-8%	i
O=C(c1ccco1)N1CCN(c2ccc([N+](=O)[O-])cc2F)CC1	-6%	-14%
Cc1cc(C(F)F)n2nc(C(=O)Nc3ccc(F)cc3F)nc2n1	-6%	.
Cn1c(=O)n(C)c2cc(N3CCOCC3)c(NC(=O)c3ccc(F)cc3)cc21	-13%	i
COc1ccc(NCC(=O)NN=C2CCS(=O)(=O)c3ccc(F)cc32)cc1	-24%	-15%
O=S(=O)(N/N=C\c1ccc2c(c1)OCO2)c1ccc(F)cc1	-3%	i
Fc1ccc2nc3n(c2c1F)CCCCCC3	-19%	-19%
CCOP1(=O)C=C(C(C)(C)C)OC1c1ccc(F)cc1 (centres undefined)	-11%	-11%[1.46 µM]
CCc1cccc(NC(=O)C2CCCN(c3ncnc4onc(-c5ccc(F)cc5)c34)C2)c1 (centres undefined)	-16%	-14%
CN(CC(=O)Nc1ccccc1Oc1ccccc1)Cc1ccccc1F	-8%	i
CC(C)(C)NC(=O)Cn1cc(C(=O)c2ccccc2F)c2ccccc21	-8%	i
